Screening results: PubChem BioAssay, National Center for Advancing Translational Sciences (NCATS)
D2 agonist: agonists of human D2 dopamine receptor (beta-arrestin) | 0.084% of 360,000 active | AID 624465 | activation, % (no concentration beside the values) | P14416 | DiscoveRx PathHunter D2 beta-arrestin, luminescence, 90 min; 100% = 57 uM dopamine signal; in the data active = activation above about 40%; inconclusive = about 15% to 40%; inactive = below about 15%; note: compound concentration not given in the record; the text of the record calls up to 30% inactive
Target sequence (P14416 whole entry, looked up): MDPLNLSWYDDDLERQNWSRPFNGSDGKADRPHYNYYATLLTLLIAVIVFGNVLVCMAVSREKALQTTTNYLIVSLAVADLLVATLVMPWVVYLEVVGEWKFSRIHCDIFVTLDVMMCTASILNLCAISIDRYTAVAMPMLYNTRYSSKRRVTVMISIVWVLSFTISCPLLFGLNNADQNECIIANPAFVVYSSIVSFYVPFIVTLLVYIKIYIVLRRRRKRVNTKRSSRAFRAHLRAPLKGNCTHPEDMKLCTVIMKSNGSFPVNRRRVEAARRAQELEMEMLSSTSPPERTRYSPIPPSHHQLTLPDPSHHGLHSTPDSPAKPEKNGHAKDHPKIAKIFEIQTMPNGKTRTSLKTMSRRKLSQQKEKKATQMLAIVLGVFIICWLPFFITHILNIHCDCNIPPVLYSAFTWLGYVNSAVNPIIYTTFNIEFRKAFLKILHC
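Agonist mode: compounds alone added to overnight-plated D2 PathHunter cells for 90 min at 37 C, with 57 uM final dopamine (EC100) defining full response. Beta-arrestin recruitment detected by chemiluminescent reagent, read after 1 h at ambient temperature.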
Six1-Eya2 inh: blocks human Six1 binding to Eya2; Q15475+O00167; AlphaScreen GST-Six1/His-Eya2 binding, biochemical; active compounds read low; control for the full effect not named in the record; activity change, % (test concentration not listed); 0.56% of 360,000 active; in the data active = activity change below about -65%; inconclusive = about -30% to -65%; inactive = above about -30%; note: % is set by controls: 0 for no effect and ±100 for the full control effect
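Six1/Eya2 binding was read as AlphaScreen signal after compounds were pinned into GST-Six1 plus His-tagged Eya2 (5X stock 250/500 nM) in pH 8.0 Tris/NaCl/TCEP buffer, beads added, then incubated 1 h, 37 C, dark.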
D2 PAM: positive allosteric modulators of human D2 dopamine receptor; P14416; DiscoveRx D2 beta-arrestin cells, luminescence, 90 min; 100% = 57 uM dopamine signal; potentiation, % (concentration not given with the values); 0.23% of 360,000 active; active = potentiation of 50% or more; inconclusive = 30% to 50%; inactive = 30% or less;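 note: compound concentration not given in the record; tested on top of an EC20 dose of dopamine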
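PathHunter D2 cells, attached overnight at 37 deg C, received compound in DMSO plus dopamine at EC20 (50 nM final) for 90 min at 37 deg C. Beta-arrestin recruitment was read as luminescence after 1 h with detection reagent at ambient temperature.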
PINK1 modulator: changes PINK1 expression | Potency, µM (doses to about 76.6 µM), inactives show top-dose activation (PINK1 increase), usual class: activators | PINK1 immunofluorescence, high-content cytometry, 24 h | 0.2% of 410,000 active; active = well fitted activation curve with a large enough effect; inconclusive = small, poorly fitted or top-dose-only effect; inactive = flat fitted curve, though single readings scatter; cell line not stated here;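 note: potency is the fitted concentration of half-maximal effect; % of control where 0% means no effect; nearly all actives have a fitted effect of over 65% in size; a mitochondrial uncoupler was the plate control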
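Stable cell line, 250 cells/well, 12 h attachment; compounds pinned at 5 concentrations, 24 h; CCCP control. Fixed with nuclear dye, primary antibodies 12 h at 10 degrees C, secondary plus cell stain; laser-scanning cytometer read.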
CtBP-E1A inh: inhibitors of CtBP/E1A interaction; AlphaScreen GST-E1A/His-CtBP binding, 1536-well; active compounds read low; control for the full effect not named in the record; activity change, % (concentration not given with the values); 0.49% of 340,000 active; AID 651724; in the data active means activity change below about -65%; inconclusive means about -30% to -65%; inactive means above about -30%; note: % is set by controls: 0 for no effect and ±100 for the full control effect
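GST-E1A and His-tagged CtBP (125 nM each as 5X stock) were preincubated with pin-transferred compound for 2 h at 37 °C in the dark, then glutathione donor and nickel acceptor beads were added for 1 h before AlphaScreen reading.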
TRPML1 agonist: agonists of human TRPML1 channel; AID 624414; Q9GZU1; activation, % (no concentration beside the values); TRPML1-expressing cells, Ca2+ dye fluorescence, FDSS; host cell line not named in the record; reference of the full effect not given here; 0.12% of 410,000 active; in the data active = activation above about 50%; inconclusive = about 30% to 50%; inactive = below about 30%; note: 0% is about no effect; the text of the record puts the active cut at 80%
Target sequence (Q9GZU1 whole entry, looked up): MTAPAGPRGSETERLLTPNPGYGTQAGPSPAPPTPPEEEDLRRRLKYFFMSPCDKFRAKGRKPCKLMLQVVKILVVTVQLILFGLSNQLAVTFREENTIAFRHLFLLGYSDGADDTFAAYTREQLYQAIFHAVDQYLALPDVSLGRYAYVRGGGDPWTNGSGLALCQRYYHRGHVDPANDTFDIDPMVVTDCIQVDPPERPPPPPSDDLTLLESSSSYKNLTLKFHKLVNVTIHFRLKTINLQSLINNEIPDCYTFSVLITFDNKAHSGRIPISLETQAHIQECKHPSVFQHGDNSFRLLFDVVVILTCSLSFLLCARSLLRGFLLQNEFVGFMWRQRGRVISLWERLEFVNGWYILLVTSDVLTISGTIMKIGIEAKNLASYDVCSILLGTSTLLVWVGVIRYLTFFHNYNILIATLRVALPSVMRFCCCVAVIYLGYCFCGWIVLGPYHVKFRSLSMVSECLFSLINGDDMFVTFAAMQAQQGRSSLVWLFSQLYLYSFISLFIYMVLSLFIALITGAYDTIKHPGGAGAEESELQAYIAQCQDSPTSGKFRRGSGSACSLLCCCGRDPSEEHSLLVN
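Tet-induced TRPML1-DL cells, 1,500 per well, cultured overnight, were loaded with a no-wash Ca2+ dye for 45–90 min. Calcium fluorescence was recorded on the FDSS for 110 s after compound addition, before the EC80 agonist (4 uM 54-4) was added.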
* hit, by the source's call; ? = inconclusive; · = no result given; & = joins results of further samples; [ ] = remark or other dose.

SMILES | D2 agonist | Six1-Eya2 inh | D2 PAM | PINK1 modulator | CtBP-E1A inh | TRPML1 agonist
O=C(NCCc1ccccc1)C1CCCN(c2ncnc3c2nc2n3CCCCC2)C1 (stereo unspecified) | -0.5 | 13 | 1 | 1.2% | 1 | -0.5
Cc1cc(C)n(CCN(C)C(=O)C2CCC(=O)N(CCN3CCOCC3)C2)n1 (stereo unspecified) | -2.0 | 7 | 6 | 1.8% | 5 | 0.5
Cc1ccc(CNC(=O)c2cc3c(-c4ccc(Cl)cc4)nn(C)c3s2)o1 | 3.8 | ? | 9 | 6.5% | -18 | 0.5
CN(C(=O)c1ccccn1)c1nnc(-c2ccccn2)s1 | -4.0 | -2 | 2 | 0.6% | -7 | -0.8
CN(C)CCCOC(=O)c1ccccc1 | -2.9 | 1 | -2 | · | 7 | 0.2
CCc1ccc(OCC(=O)NNC(=O)c2cc(S(=O)(=O)N(C)C)ccc2N2CCCC2)cc1 | -3.4 | 4 | -3 | 0.5% | -5 | 0.6
O=C(c1cc(COc2c(F)cccc2F)on1)N1CCN(C2CCCCC2)CC1 | -2.9 | -3 | -9 | 2.8% | -8 | 0.4
Cc1ccc(-c2nnc(SCC(=O)Nc3nccs3)n2N)cc1 | -0.2 | -1 | 5 | 0.8% | -7 | 0.8
O=C(c1cccc(N2C(=O)c3ccccc3C2=O)c1)N1CCCC(C(F)(F)F)C1 (stereo unspecified) | 2.1 | 1 | -23 | 2.2% | 2 | -0.9
O=C(CCc1nnc(CCC2CCCCC2)o1)NCc1ccon1 | -4.2 | 7 | -2 | 2.3% | · | 0.3
Oc1c(Cl)cc(Cl)cc1/C=N/c1ncn[nH]1 | -9.2 | 0 | -18 | 1.3% | · | 0.2
O=C(NCc1ccccn1)c1ccc(Cl)cc1Cl | 1.1 | 2 | 0 | -2.5%[38.3 µM] | 2 | 0.1
CCO[C@H]1OC(C(=O)NC2CC2)=C[C@@H](c2ccc3c(c2)OCO3)[C@@H]1CCCO | 3.4 | 2 | -2 | -1.0% | 6 | -1.2
O=C(c1cccs1)N(C(=O)c1cccs1)c1ccccn1 | 1.5 | 3 | 2 | -2.6%[38.3 µM] | 7 | 0.4
Cc1c(C#N)c(=O)c(-[n+]2ccccc2)c([S-])n1-c1ccc(Cl)cc1 | -6.0 | -2 | -5 | -0.5% | 9 | 0.0
Cc1oc(-c2cccc3ccccc23)nc1CN1CCN(c2ncnc3ccccc23)CC1 | 1.8 | -13 | -10 | 0.4% | 0 | 0.0
Cc1c(C(=O)N2CCN(c3cccc(Cl)c3)CC2)cccc1[N+](=O)[O-] | 0.0 | -10 | 1 | 0.5% | -7 | 7.0
O=C(Nc1ccccc1-c1ccccc1)C(c1ccccc1)c1ccccc1 | -8.6 | 11 | -6 | 9.5% | 3 | -1.1
COc1ccc(OC)c(NC(=O)Cc2nn(C)c(=O)c3ccccc23)c1 | -2.6 | -3 | 0 | 1.0% | 0 | -1.1
CCOC(=O)N1CCN(C(=O)CSc2ccc(Cl)cc2)CC1 | -2.1 | 8 | 4 | -1.3% | 1 | 0.0
CC(C)(C)Cc1c(-c2ccc(F)cc2)nc2ccc(Cl)cn12 | -10 | 21 | -2 | ? | 2 | 0.8
COC(=O)CCCNC(=O)c1ccc2nc(Cc3ccc(OC)cc3)oc2c1 | -2.3 | 11 | 1 | 1.0% | 8 | 0.4
CSc1nc(Cl)cc(N2CCOCC2)n1 | 2.4 | 2 | -1 | -0.2% | 4 | -0.3
O=C(NN1C(=O)NC2(CCCCC2)C1=O)c1ccc(Cl)c(Cl)c1 | 1.4 | -2 | -4 | 1.6% | 0 | 3.3
CCc1nnc(NS(=O)(=O)c2ccc(NC(=S)NC(=O)/C=C/c3ccc([N+](=O)[O-])cc3)cc2)s1 | -2.7 | 0 | -7 | 0.8% | 3 | -0.7
COc1ccc(OC)c(/C=N/NC(=O)C(=O)N2CCCC2)c1 | -0.4 | 14 | 18 | 4.8% | 0 | 1.9
O=C1C=C(c2ccc3c(c2)OCCO3)C[C@@H](c2ccc(F)cc2)C1 | -5.7 | -17 | -11 | 2.6% | 1 | 3.0
Cc1cccc(N(C(=O)c2ccc(CN3CCOCC3)o2)C(C(=O)NC(C)(C)C)c2ccc(F)cc2)c1 (stereo unspecified) | 1.2 | 1 | -20 | 0.8% | 3 | -0.6
CCCCOC(=O)c1ccc(S(N)(=O)=O)o1 | -1.9 | 8 | -19 | -0.2% | 2 | 1.0
COC(=O)c1c(C)cc(O)cc1O | -3.2 | -1 | -21 | 1.0%&-1.1% | 0 | ·
Cc1ccc(Cl)cc1-n1c(=O)cc(N2CCN(C(=O)c3ccco3)CC2)[nH]c1=O | 0.3 | -4 | 3 | 0.3% | 12 | -0.5
CCCC(c1nnnn1C(C)(C)CC)N(Cc1ccco1)Cc1cc2ccc(OC)cc2[nH]c1=O (stereo unspecified) | -3.1 | -19 | -13 | 0.8% | -9 | 1.6
Cc1ccccc1Cn1cnc2c(nnn2Cc2ccc(F)cc2)c1=O | -0.1 | 3 | -9 | 6.8%[38.3 µM] | 4 | 1.9
CC(=O)c1cccc(NC(=O)C(C)OC(=O)Cc2c[nH]c3ccccc23)c1 (stereo unspecified) | -3.7 | 0 | -3 | 0.0% | 4 | -1.3
O=C(Nc1ccc2c(c1)OCCO2)C1CCN(C(=O)c2ccc([N+](=O)[O-])cc2)CC1 | 0.5 | -2 | -5 | -0.8% | · | 0.2
COc1nc(N)nc(NC23CC4CC(CC(C4)C2)C3)n1 | -1.1 | -1 | -7 | -5.4%[38.3 µM] | -3 | 0.6
CCN(/C=N/c1sc2c(c1C#N)CC(C)(C)NC2(C)C)CC | -1.6 | 0 | -4 | -1.6%[38.3 µM] | 14 | 1.7
O=C(COC(=O)c1ccccn1)Nc1cccnc1Cl | -4.4 | -8 | -7 | 0.9% | -5 | 0.4
CCOC(=O)C1(C)CCN1C(=O)Cc1ccc(OC)cc1 (stereo unspecified) | -3.2 | -3 | -6 | 2.2% | -1 | 0.0
CCC(CC)COC(=O)C1=C(C)NC(=O)NC1c1ccccc1Br (stereo unspecified) | 12 | 3 | 0 | 1.1% | 2 | 1.8
CCNC(=O)c1sccc1-n1cccc1 | -3.3 | 0 | -28 | -0.8% | 0 | -0.7
CC1=NN(c2ccc(C(=O)OC(C)C)cc2)C(=O)/C1=C\C=C\c1ccco1 | -2.7 | -13 | -8 | 1.8% | -16 | -1.2
C/C(=N/NC(=O)c1ccc(Cl)cc1Cl)c1cccnc1 | -5.0 | 11 | -6 | 1.4% | · | 0.2
COC(=O)c1cccc(NC(=O)CC2C(=O)NCCN2C(=O)Nc2cc(C)cc(C)c2)c1 (stereo unspecified) | 0.5 | -9 | -19 | -0.1% | -11 | 1.8
O=C(CC(c1ccccc1)c1ccccc1O)N1CCCCC1 (stereo unspecified) | 0.9 | -8 | -6 | 0.1% | · | -1.1
Cc1ccccc1C(=O)NCC(=O)OCC(=O)NC(C)C1CC2CCC1C2 (stereo unspecified) | 7.9 | 7 | -2 | 0.1% | 3 | 4.0
CN(C)CCCNC(=O)c1cc(Br)ccc1Cl | -2.8 | 5 | -9 | -0.3%[38.3 µM] | 0 | 0.0
O=[N+]([O-])c1cccc(C=NNc2ccc3ccccc3n2)c1O | -1.8 | -91* | -28 | 7.2% | -95* | 2.2
Cc1cc(S(=O)(=O)N2CCCC(C(=O)Nc3ccc(C(=O)O)cc3)C2)ccc1Cl (stereo unspecified) | -3.7 | 10 | 4 | -1.4% | -11 | -0.3
COC(=O)c1ccccc1NC(=O)c1sc(N)nc1C | 2.1 | ? | -8 | -2.1% | -28 | 1.9

Full records, quoted from the list:
`CN(C)CCCOC(=O)c1ccccc1` as listed: D2 agonist = -2.9; Six1-Eya2 inh = 1; D2 PAM = -2; PINK1 modulator = ·; CtBP-E1A inh = 7; TRPML1 agonist = 0.2
`COc1ccc(OC)c(NC(=O)Cc2nn(C)c(=O)c3ccccc23)c1` as listed: D2 agonist = -2.6; Six1-Eya2 inh = -3; D2 PAM = 0; PINK1 modulator = 1.0%; CtBP-E1A inh = 0; TRPML1 agonist = -1.1

The listing picks up, starting 2 compounds before the break.
SMILES | D2 agonist | Six1-Eya2 inh | D2 PAM | PINK1 modulator | CtBP-E1A inh | TRPML1 agonist
Cc1cc(S(=O)(=O)N2CCCC(C(=O)Nc3ccc(C(=O)O)cc3)C2)ccc1Cl (stereo unspecified) | -3.7 | 10 | 4 | -1.4% | -11 | -0.3
COC(=O)c1ccccc1NC(=O)c1sc(N)nc1C | 2.1 | ? | -8 | -2.1% | -28 | 1.9
CCS(=O)(=O)Nc1ccc(C(=O)OC)cc1 | 0.5 | 9 | 16 | -1.2% | 5 | -0.2
COc1ccc2c(c1)C(NC(C)=O)C(=O)N2C (stereo unspecified) | -0.6 | -1 | 13 | 0.5% | 15 | 0.3
Cc1nn(-c2ccccc2)c(C)c1C(=O)OCC(=O)N1CCN(S(=O)(=O)c2ccccc2)CC1 | -3.4 | -3 | -7 | -0.8% | 4 | 0.4
COC(=O)Cn1c(CN2CCC(Cc3ccccc3)CC2)nc2c1c(=O)n(C)c(=O)n2C | 1.7 | 2 | 10 | 3.3%[38.3 µM] | 1 | 1.4
Cc1oc2c(c(C)cc3oc(=O)c(CC(=O)N[C@@H](C)C(=O)O)c(C)c32)c1C | 9.5 | -6 | 0 | -2.4% | -17 | 1.5
CCOC(=O)c1ccc(NC(=O)CCC(=O)NCc2ccco2)cc1 | -0.8 | -4 | -3 | -1.0% | 4 | 0.0
COc1ccc(NC(=O)CCN2CCCCCC2)cc1 | -2.1 | -11 | -10 | -1.4% | -5 | -0.8
Cc1ccc(S(=O)(=O)n2nc(OC(=O)c3ccccc3F)cc2N)cc1 | -5.2 | -12 | -6 | 5.6% | 14 | 1.4
COCCn1c(SCC(=O)NC2CCCC2)nnc1-c1ccco1 | 2.8 | 7 | 2 | 1.5% | 0 | 0.3
CCOC(=O)C(c1ccccc1)C(Nc1ccc(Cl)c(Cl)c1)c1ccccn1 (stereo unspecified) | 2.9 | 4 | -3 | 12% | 0 | 3.0

Six1-Eya2 inh, what is marked active above.
| smiles | D2 agonist | Six1-Eya2 inh | D2 PAM | PINK1 modulator | CtBP-E1A inh |
| --- | --- | --- | --- | --- | --- |
| O=[N+]([O-])c1cccc(C=NNc2ccc3ccccc3n2)c1O | -1.8 | -91* | -28 | 7.2% | -95* |

Additional structures.
SMILES | D2 agonist | Six1-Eya2 inh | D2 PAM | PINK1 modulator | CtBP-E1A inh | TRPML1 agonist
COc1ccc(C(=O)NCC(=O)OCC(=O)NC2CCCCCC2)cc1OC | 3.6 | -1 | 9 | 1.0% | · | -0.1
CC(=O)Nc1ccc(NC(=O)N2CCCCC2)cc1 | 0.0 | 9 | 3 | 1.4% | -8 | -0.1
CC(C)Sc1nc(SCC(=O)O)c2c3c(sc2n1)COC(C)(C)C3 | -1.4 | 5 | -2 | -2.1% | 5 | -0.4
Cc1ccc(C(=O)C2CC2)cc1C | -3.0 | 2 | 6 | 1.0% | -3 | -0.1
CCCc1[nH]nc2c1C(C1CCCCC1)C(C#N)=C(N)O2 (stereo unspecified) | -2.0 | 1 | -5 | 6.9% | -2 | 0.1
O=C(Nc1ccc(Cl)c(C(F)(F)F)c1)N1CCCC(O)C1 (stereo unspecified) | -0.5 | 5 | -26 | -0.6% | 6 | 0.3
CC(C)OCCCNc1nc2c(cnn2C)c(=O)[nH]1 | 0.1 | -11 | -50 | -0.9% | 3 | -0.6
